Bioassay records (PubChem BioAssay)
Mtb hypoxia inh = inhibitors of hypoxia-regulated fluorescent reporter in Mycobacterium tuberculosis; M. tuberculosis hypoxia-regulated fluorescent reporter, fluorescence; fluorescence inhibition, % (concentration not given with the values); 0.1% of 300,000 active;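 active = 35 to 45% if threefold the growth effect, above 45% if 1.5-fold the growth effect; inactive = the rest, general growth blockers included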;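 note: wells of about 50 µL received 100 nL stock; 0% = vehicle wells and 100% = reference inhibitor wells; whole bacteria with a GFP reporter of the hypoxia response; strong numbers were not always called active; many hits fall short of the cut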
PrP 5UTR inh = suppresses PrP 5' UTR mRNA reporter expression; cell-based PrP 5' UTR mRNA reporter, plate reader; 0.35% of 340,000 active; inhibition, % (test concentration not listed);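 active = every replicate at 50% or more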;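 note: 0 = median of the neutral control wells; tested in H4 reporter cells; numbers are from one replicate; inactives centre near -14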
ugtP null kill = growth inhibition of S. aureus ugtP deletion strain; growth inhibition, % (test concentration not listed); S. aureus RN4220 ugtP deletion, OD600 growth, 16 h; some inactives read as strong as hits; AID 1259309; 0.54% of 330,000 active;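 active = z-score under -3 and OD600 up to 0.15 on both plates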;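 note: plate controls were untreated wells for no effect and antibiotic for full effect; wells of about 80 µL received 100 nL stock; the first replicate is given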
BJeLR lethal = BJeLR cell viability loss | 0.17% of 300,000 active | inhibition, % (no concentration beside the values) | BJeLR (HRASV12) viability, CellTiter-Glo ATP luminescence, 48 h; reference of the scale not given here | AID 1554;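 active = replicate mean above 50%; inconclusive = above 50% but judged a plate artefact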;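 note: 50 nL library stock added to about 25 µL; numbers are from one replicate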
Autofluor counter = counter-screen for toxin protease inhibitors: compound fluorescence | fluorescence intensity (test concentration not listed) | AID 624483 | compound autofluorescence counterscreen, microsphere flow cytometry; stronger effect = higher value | 3.1% of 360,000 active;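 active = at least 3 SD above the mean of all compounds, about 16000 in these data; inconclusive = too few beads counted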;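 note: 100 nL of 1 mM stock went into each well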
Sa RN4220 lethal = S. aureus RN4220 growth inhibition; OD600, 16 h; inhibition, % (test concentration not listed); 0.33% of 330,000 active; AID 1259311;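 active = z-score of -3 or lower and OD600 up to 0.18 on both plates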;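 note: plate controls were untreated cells for no effect and reference antibiotic for full effect; stock transfer was 100 nL into about 80 µL; one replicate is shown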
Mtb hypoxia inh growth = further read-out of Mtb hypoxia inh, marked with its call; growth inhibition, %; measured here: M. tuberculosis growth (absorbance);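 0% = vehicle and 100% = reference antibiotic; read after six days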
* marks the source's active call; other numbers are inactive results; u = inconclusive; x = not tested or not shown.

SMILES	Mtb hypoxia inh	Mtb hypoxia inh growth	PrP 5UTR inh	ugtP null kill	BJeLR lethal	Autofluor counter	Sa RN4220 lethal
O=C(CN1C(=O)NC2(CCCC2)C1=O)N1CCN(S(=O)(=O)c2ccccc2)CC1	6	8	-15	2	x	4501	2.6
COc1ccc(CN(C(=O)c2ccco2)c2ccc(C)cc2)cc1OC	15	7	-8	7	0	3654	5.0
Cc1cc(C)cc(N(CC(=O)N2CCOCC2)S(=O)(=O)c2ccccc2)c1	x	x	-10	-4	-7	2310	3.6
CC1=N/C(=C/c2ccc([N+](=O)[O-])cc2)C(=O)N1c1ccc(Cl)cc1Cl	12	12	-1	-12	-9	11873	-0.8
COCCN(C(=O)CNC(=O)c1ccco1)C(C(=O)NC1CCCC1)c1ccc(F)cc1 (stereo not drawn)	-1	1	-18	4	8	3138	5.3
CCCc1c(C)nc(N2CCN(c3ccccc3OC)CC2)[nH]c1=O	15	-1	-17	7	15	4106	3.9
CC1CN(C(=O)c2c([N+](=O)[O-])cnn2C)CC(C)O1 (stereo not drawn)	4	1	x	6	-9	9716	2.3
CC1(c2ccccc2)NC(=O)N(CC(=O)NCCN2C(=O)S/C(=C\c3cccnc3)C2=O)C1=O (stereo not drawn)	6	3	-10	4	x	4124	3.3
CCC(C)[C@H](NC(=O)Nc1ccccc1F)C(=O)OC (stereo partly drawn)	7	6	-11	5	0	5467	4.6
CCOC(=O)CN(C(=O)CSc1nnc(-c2ccc(OC)c(OC)c2)o1)c1ccc(F)cc1	-11	-5	-19	-3	-1	x	-0.6
O=C(c1ccc(-c2cc(O)c3ncccc3c2)cc1)N1CCNCC1	2	-5	-43	1	x	2332	-7.5
CCOc1cc(C(=O)N/N=C/C2CC=CCC2)cc(OCC)c1OCC (stereo not drawn)	x	x	5	x	-14	2399	x
Cc1ccc(CN(C)C(=O)c2cccc(S(=O)(=O)N3CCN(Cc4ccccc4)CC3)c2)o1	9	1	-24	1	6	5975	0.1
CCC(C)NCCOCCOc1ccc(Br)cc1 (stereo not drawn)	x	x	-13	x	-6	1994	x
CNC(=S)NN=Cc1cn(CCOc2cccc(OC)c2)c2ccccc12	-4	-4	x	25	x	x	26
CC(C)(Oc1ccc(Cl)cc1)C(=O)NC1=NN(c2ccccc2)C(=O)C1	-4	-2	1	16	-3	1884	1.0
Cc1ccc(S(=O)(=O)c2cc3c(=O)n4ccccc4nc3n(CCc3ccccc3)c2=N)cc1	-4	3	-84	3	24	6600	3.4
CCc1ccc(-c2cc3c(=O)n(CC(=O)NCCCN4CCN(Cc5ccccc5)CC4)nc(C)n3n2)cc1	-2	0	-6	-7	-3	4387	-0.7
Cc1cccn2c(=O)nc(SCC(=O)c3ccccc3)nc12	2	3	-42	10	5	x	5.3
CCC(C)N1C(=O)S/C(=C/c2ccc(Sc3nc4ccccc4[nH]3)o2)C1=O (stereo not drawn)	9	-3	-7	-4	-2	7442	-9.6
COc1ccc(NC(=O)C(C)Sc2nnc(C3CC3)n2C2CC2)cc1 (stereo not drawn)	9	4	-5	4	x	5039	9.3
Clc1ccc(-n2nnnc2CN2CCOCC2)cc1	17	6	-16	8	-3	6104	3.8
CC1CN(C(=O)c2cccc(Oc3ccccc3)c2)CC(C)O1 (stereo not drawn)	5	0	-16	10	-18	4159	5.6
COc1cc2c(cc1OC)C(C(=O)NCC1COc3ccccc3O1)C(c1cccnc1)N(C)C2=O (stereo not drawn)	10	11	x	2	x	x	1.9
O=C(CCC(=O)N1CCOc2ccccc21)NCc1ccccn1	0	1	-26	-4	3	6077	-14
CCn1c(SCC(=O)N2CC(C)OC(C)C2)nc2c([nH]c3ccccc32)c1=O (stereo not drawn)	7	1	-2	0	-1	4428	1.3
COC(=O)C1=C(c2ccccc2)C[C@@H]2CC[C@H]1N2C(=O)NCCCOC(C)C	x	x	-17	x	5	4424	x
CC(/C=C1\SC(=O)N(CCCC(=O)O)C1=O)=C\c1ccccc1	-1	6	83*	10	1	2528	9.1
O=C(Nc1cccc([N+](=O)[O-])c1)Nn1cnnc1	-2	-2	-22	-7	4	6276	-0.5
Cc1ccc(Cl)cc1N1CCN(Cc2cc(=O)n3ccsc3n2)CC1	5	4	5	12	13	3715	2.0
Cc1cc(C)n(Cc2ccccc2F)c(=O)c1C#N	0	1	-3	12	10	4787	4.4
Cc1nc(C)n(C(C)CNC(=O)c2ccccc2)n1 (stereo not drawn)	14	5	-16	6	9	3734	3.4
CCCCC(=O)Oc1c(S(=O)(=O)c2ccccc2)c(C)nn1C(C)(C)C	4	-6	-6	20	6	3255	6.7
COc1cccc2cc(C(=O)NC3CC4CCC3C4)oc12 (stereo not drawn)	12	24	-16	3	-1	3510	8.6
Cc1cccc(NC(=O)CSc2nc3[nH]ncc3c(=O)[nH]2)c1	14	5	-6	-1	-17	2414	0.0
CCOC(=O)/C=C1\SCC(=O)N1CC(=O)NC(C)c1ccc(F)cc1 (stereo not drawn)	7	-4	-13	1	-4	7584	1.8
COc1ccccc1N1CCN(S(=O)(=O)/C=C/c2ccccc2)CC1	-3	6	-23	-2	9	2871	-6.4
CCc1cccc(C)c1NS(=O)(=O)c1cc(Br)cnc1N	-3	-5	-3	5	2	4670	19
Cc1c(NS(=O)(=O)c2ccc(N3CCCCC3)c([N+](=O)[O-])c2)c(=O)n(-c2ccccc2)n1C	0	7	-16	-2	-5	9609	3.4
Cc1ccc2nc(-c3ccncc3)cc(-c3ccccc3)c2c1	10	8	-18	9	6	7980	7.9
Cc1cc(C)n(CCCNC(=O)c2ccco2)n1	-5	4	-2	-1	x	9301	-2.0
COc1ccc(C(C)=NNc2nccnc2Cl)cc1	9	3	x	-7	x	x	2.0
COCCN(C(=O)COC(=O)CCOc1ccccc1C)c1c(N)n(Cc2ccccc2)c(=O)[nH]c1=O	9	2	-22	-2	7	5148	-0.7
COc1ccc(/C=N/OCc2nc3c4c(ncn3n2)Oc2ccc3ccccc3c2C4c2ccccc2)cc1 (stereo not drawn)	x	x	-37	x	-4	23152*	x
CC1CCCN(C(=O)CNS(=O)(=O)c2cccs2)C1 (stereo not drawn)	0	-3	-16	5	-18	6221	5.0
CCOC(=O)c1ccc(N2C(=O)CC(N3CC=C(c4ccc(F)cc4)CC3)C2=O)cc1 (stereo not drawn)	x	x	-17	0	8	3486	2.9
COc1ccc(-c2csc(NC(=O)COC(=O)Cc3ccccc3)n2)cc1OC	1	7	x	-3	2	x	-0.1
C/C(=N\NC(=O)c1csc(C)c1C)c1ccc(Cl)s1	x	x	-48	x	1	3580	x
O=C(c1ccc(F)cc1)N1CCN2C(=O)c3ccccc3C12c1ccc(Cl)cc1 (stereo not drawn)	4	4	-8	12	3	3118	7.9
Oc1ccc(/C=N/Nc2ccnc3cc(Cl)ccc23)c(O)c1O	x	x	-11	x	1	4713	x

An excerpt from above in order of length of the SMILES, rising:
SMILES	Mtb hypoxia inh	Mtb hypoxia inh growth	PrP 5UTR inh	ugtP null kill	BJeLR lethal	Autofluor counter	Sa RN4220 lethal
Cc1cc(C)n(CCCNC(=O)c2ccco2)n1	-5	4	-2	-1	x	9301	-2.0
C/C(=N\NC(=O)c1csc(C)c1C)c1ccc(Cl)s1	x	x	-48	x	1	3580	x
Oc1ccc(/C=N/Nc2ccnc3cc(Cl)ccc23)c(O)c1O	x	x	-11	x	1	4713	x
CCOC(=O)c1ccc(N2C(=O)CC(N3CC=C(c4ccc(F)cc4)CC3)C2=O)cc1 (stereo not drawn)	x	x	-17	0	8	3486	2.9

(cont.)
SMILES	Mtb hypoxia inh	Mtb hypoxia inh growth	PrP 5UTR inh	ugtP null kill	BJeLR lethal	Autofluor counter	Sa RN4220 lethal
CCOC(=O)C1CCN(C(=O)COc2ccc(S(=O)(=O)NC(C)C)cc2Cl)CC1	x	x	-10	-6	7	4661	-0.5
CCOC(=O)C1=C(c2ccccc2)N=C2SCC(=O)N2C1c1ccc(O)c(OC)c1 (stereo not drawn)	4	-3	-26	19	2	12060	5.0
O=C(Nc1ccc2cn[nH]c2c1)c1ccccc1F	9	4	-92	2	1	2126	2.4
CC(CC(=O)Nc1ccc(OCc2ccccc2)cc1)=NNC(=O)C(=O)Nc1cccc(C)c1	0	-4	x	-4	x	x	-0.6
O=C1CCCC2=C1C(c1cccs1)Nc1ccccc1N2 (stereo not drawn)	7	-2	-5	4	-2	1995	3.4
CC1CC(C)CN(CCCNC(=O)c2ccc(CS(=O)(=O)Cc3ccccc3F)o2)C1 (stereo not drawn)	17	6	-18	-1	0	2527	-5.3
COC(=O)CCC(=O)OC1(C)C(=O)C=C2C=C(C3CC3)N(CCc3ccccn3)C=C2C1=O (stereo not drawn)	15	3	-23	-3	-4	3950	9.1
COc1ccc(S(=O)(=O)N(C)CC2Oc3c(NC(=O)NC4CCCCC4)cccc3C(=O)N(C(C)CO)CC2C)cc1 (stereo not drawn)	6	0	x	-2	x	x	4.8
O=C1/C(=C/c2ccc3c(c2)OCO3)CCC/C1=C\c1ccc2c(c1)OCO2	4	4	-23	1	-5	2595	55
COc1ccc(C(=O)COC(=O)CNC(=O)c2ccc(C)s2)c(OC)c1	35*	74*	-22	8	x	4018	4.4
Cc1nn(-c2ccccc2)c(C)c1/C=N\N1CCN(c2ccc(Cl)cc2)CC1	x	x	-5	x	1	2521	x
COc1ccc(C(=O)N/C(=C\c2cn(S(=O)(=O)N(C)C)c3ccccc23)C(=O)NC(C)C)cc1	12	7	-44	-1	-7	4522	12
CC(=O)Oc1cccc(C2C3=C(CC(C)(C)CC3=O)Nc3ccccc3N2C(C)=O)c1 (stereo not drawn)	3	-2	-2	8	7	3192	4.6
CSCCC(NS(=O)(=O)c1ccc2[nH]c(=O)c(=O)[nH]c2c1)C(=O)O (stereo not drawn)	12	-2	-27	5	-1	4271	14
Cc1ccc2nc(C)cc(Nc3ccc4c(c3)OCCO4)c2c1	10	8	-7	8	16	4005	-1.2
CS(=O)(=O)c1cccc(C(=O)N(CCc2ccccc2)Cc2cccs2)c1	-9	-3	-9	3	-1	4098	4.0
CN(CC(=O)Nc1ccc(S(=O)(=O)N2CCOCC2)cc1)Cc1ccc(F)cc1	-2	6	-13	7	x	9066	2.3
COc1ccc(/C=C/C(=O)NC(=S)N2CCOCC2)cc1	x	x	-61	x	-5	4838	x
COCCCN1CN(S(=O)(=O)c2ccc(Cl)cc2)c2nc3ccccc3nc21	19	12	-17	-1	-8	3694	-4.4
C=CCN(C(=O)Cn1nnc2ccccc21)C(C(=O)NCCOC)c1ccc(OC)cc1OC (stereo not drawn)	x	x	-2	9	2	3578	-1.9

In the list so far, these contain bromine.
SMILES	Mtb hypoxia inh	Mtb hypoxia inh growth	PrP 5UTR inh	ugtP null kill	BJeLR lethal	Autofluor counter	Sa RN4220 lethal
CCC(C)NCCOCCOc1ccc(Br)cc1 (stereo not drawn)	x	x	-13	x	-6	1994	x
CCc1cccc(C)c1NS(=O)(=O)c1cc(Br)cnc1N	-3	-5	-3	5	2	4670	19

Later entries.
SMILES	Mtb hypoxia inh	Mtb hypoxia inh growth	PrP 5UTR inh	ugtP null kill	BJeLR lethal	Autofluor counter	Sa RN4220 lethal
Cc1cccc(CC(C)NC(=O)c2cc(COc3ccc(F)cc3F)on2)n1 (stereo not drawn)	8	4	-56	2	1	5936	5.2
COc1ccc(NC(=O)Nc2ccc(F)cc2)cn1	12	1	-34	5	2	2979	3.3
CCN(Cc1ccccc1)S(=O)(=O)c1ccc(C(=O)N(CCCN(C)C)c2nc3c(C)c(C)ccc3s2)cc1	7	16	-17	-22	4	4629	1.5
Cc1ccc(C)c(CSCc2nc3ccccc3[nH]2)c1	-2	-2	-13	0	9	5093	-0.9
CCOc1ccc(-n2c(-c3ccccc3)nnc2-c2ccccc2)cc1	-9	14	9	2	-2	4621	5.3
CCN(CC(=O)Nc1ccc(OC)cc1)C(=O)c1ccc2c(c1)NC(=O)C(C)S2 (stereo not drawn)	-6	-6	-17	1	-9	5749	0.9
CCC(C)N1C(=O)NC(=O)C2(Cc3c(ccc4ccccc34)N(C)C2)C1=O (stereo not drawn)	2	3	-16	-16	-6	u	3.1
CCCCn1c(SCC(=O)O)nc2ccccc21	0	-6	-13	9	6	15904	4.0
O=C(Nc1cc([N+](=O)[O-])ccc1N1CCOCC1)c1ccco1	-2	-5	-27	0	-17	4044	-0.2
CCC(CC)C(=O)Nc1nnc(CCc2ccccc2)s1	0	-6	-3	3	8	3315	8.6
